Bioassay records from PubChem BioAssay.
INS promoter inh: TRM-6 insulin promoter activity inhibition | TRM-6 cells (human fetal islet line), insulin promoter-eGFP reporter, imaging; reporter expression induced with tamoxifen | inhibition, % at 2 µM | 0.9% of 130,000 active | AID 1273;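 active = inhibition above the mean plus 3 SD, with well images judged a real hit on visual review, cut at about 60% in these data, passing the limit was not always enough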
HSV augment: increases HSV replication in cells | 0.005% of 220,000 active | maximum fold increase | HSV replication augmentation in cells, fold increase | AID 1956;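 active = peak rise of 1.5-fold or more in the series; tested in PC3 cells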;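 note: first round at 10 µM; read as green reporter fluorescence; hits show the peak of a series up to 25 µM; 1 = signal of infected wells without compound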
PKD1 kinase inh: inhibitors of human PKD1 kinase; Q15139; 0.056% of 200,000 active; AID 797; inhibition, %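 (about 10 µM by stock and volumes)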; PKD1 kinase fluorescence polarization assay;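 active = inhibition of 50% or more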;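 note: controls were vehicle for no effect and a reference inhibitor for full effect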
Target sequence (Q15139 whole entry, looked up): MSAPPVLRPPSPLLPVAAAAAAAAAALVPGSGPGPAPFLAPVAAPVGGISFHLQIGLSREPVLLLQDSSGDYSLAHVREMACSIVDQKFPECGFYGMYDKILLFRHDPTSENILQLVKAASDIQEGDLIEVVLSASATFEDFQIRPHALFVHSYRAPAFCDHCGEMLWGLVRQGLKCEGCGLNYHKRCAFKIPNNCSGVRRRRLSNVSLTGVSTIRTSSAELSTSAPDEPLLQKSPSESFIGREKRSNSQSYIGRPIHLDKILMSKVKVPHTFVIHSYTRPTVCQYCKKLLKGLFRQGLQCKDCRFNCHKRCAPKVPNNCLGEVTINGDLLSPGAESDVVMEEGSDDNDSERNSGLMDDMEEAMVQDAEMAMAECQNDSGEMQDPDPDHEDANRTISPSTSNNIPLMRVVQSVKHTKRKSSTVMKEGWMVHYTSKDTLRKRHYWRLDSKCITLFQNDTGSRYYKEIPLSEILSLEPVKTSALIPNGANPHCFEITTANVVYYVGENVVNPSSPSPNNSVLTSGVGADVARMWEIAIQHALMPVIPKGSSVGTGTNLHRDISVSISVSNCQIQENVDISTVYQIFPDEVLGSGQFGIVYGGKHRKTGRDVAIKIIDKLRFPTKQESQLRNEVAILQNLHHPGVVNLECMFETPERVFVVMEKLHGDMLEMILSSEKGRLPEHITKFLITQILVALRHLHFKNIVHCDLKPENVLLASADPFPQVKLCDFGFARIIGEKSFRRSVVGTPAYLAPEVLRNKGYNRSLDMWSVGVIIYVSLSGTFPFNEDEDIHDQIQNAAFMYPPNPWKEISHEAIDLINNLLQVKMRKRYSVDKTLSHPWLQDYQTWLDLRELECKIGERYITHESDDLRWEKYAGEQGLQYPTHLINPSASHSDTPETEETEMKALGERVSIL
RGS16-Gao HTS: modulates binding between human RGS16 and Galphao; binding response (% of control), % at 10 µM; 0.38% of 220,000 active; bead-based flow cytometry RGS16-Galphao binding, fluorescence; actives lie on both sides; O15492+P09471;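 active = below 25% or above 175%, edge rows of some plates excepted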;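 note: Galphao activated by GDP with aluminum fluoride before binding; 100% = wells without compound and 0% = beads without RGS; some results beyond the cut were filed as inactive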
GALR2 agonist: GALR2 (human) receptor agonism | O43603 | GALR2-expressing cells, agonist activation read-out | activation, %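 (tested at 5 µM)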 | 0.48% of 140,000 active | AID 803;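 active = above mean plus 3 SD of all compounds, about 5% in these data, not always enough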;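 note: 0% = vehicle buffer wells and 100% = reference agonist at full effect; tested in CHO reporter cells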
INS promoter inh cell count: recorded beside INS promoter inh, whose call it bears; normalized cell count, %; measured here: cell count, toxicity; reference of the scale not given here;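 cells exposed to compound for 48 h; stained nuclei by imaging scaled within each plate; lower means fewer cells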
HSV augment primary fold: second read-out of HSV augment, no call of its own (marks repeat the call); fold increase; compound at 10 µM; measured here: primary screen fold increase 10 uM; tested in PC3 cells;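 GFP signal in the first replicate; 1 = infected wells without compound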
* = called active by the depositor; i = inactive; nt = no result given; [ ] = dose if it differs, or a comment.

SMILES	INS promoter inh	INS promoter inh cell count	HSV augment	HSV augment primary fold	PKD1 kinase inh	RGS16-Gao HTS	GALR2 agonist
COc1ccc(OCC(=O)N2CCN(c3nnc(-c4ccccc4)c4ccccc34)CC2)cc1	nt	nt	i	0.72	-6	8.3*	-0.3
S=C(NCc1ccccc1)N1CCN(Cc2ccc3c(c2)OCO3)CC1	nt	nt	i	1.1	1	112	nt
CC(C)(C)c1ccc(C(=O)NCC(=O)OCN2C(=O)c3ccccc3C2=O)cc1	-262	56	i	0.93	2	99	-2.5
O=C(Nc1ccc(F)cc1)N(CCCN1CCOCC1)Cc1cc2cc3c(cc2[nH]c1=O)OCO3	30	120	nt	nt	10	102	0.1
COC(=O)c1cc(NS(=O)(=O)c2ccc(NCc3cccnc3)c([N+](=O)[O-])c2)cc(C(=O)OC)c1	nt	nt	i	0.93	-2	104	1.6
CCCCNCc1cc2ccccc2o1	nt	nt	i	0.95	nt	90	nt
COc1ccccc1CNC(=O)c1ccc(OCC2CCCO2)cc1 (stereo not given)	nt	nt	i	1	1	119	-0.2
Cc1ccc(SCCNC(=O)C(C)C)cc1	39	68	i	0.86	-3	99	1.1
NNc1cc([N+](=O)[O-])cc2c1C(=O)N(Cc1ccccc1)S2=O (stereo not given)	nt	nt	i	0.99	-1	96	nt
COc1ccc2nc(N3C(=O)/C(=C/c4ccc(Cl)cc4)NC3=S)sc2c1	11	88	i	1.2	5	106	-0.7
COc1ccc(/C=N/NC(=O)c2ccc(Cl)cc2)cc1COC(C)=O	-50	72	i	0.98	3	56	-2.2
O=C(CN1C(=O)/C(=C2\SC(=S)N(C3CCS(=O)(=O)C3)C2=O)c2ccccc21)Nc1ccc(F)cc1 (stereo not given)	nt	nt	i	0.78	nt	97	nt
COc1cc(C2/C(=C(\O)c3cc(C)ccc3C)C(=O)C(=O)N2CCN(C)C)ccc1O (stereo not given)	nt	nt	i	1.1	-13	103	-2.5
COC(=O)c1ccc(CSc2nc3sc4c(c3c(=O)n2C)CCCC4)o1	nt	nt	i	1.1	-1	99	-1.5
CCOC(=O)Cc1csc(NC(=O)CSc2ccc(Br)cc2)n1	-41	110	i	1	1	107	-0.6
Cc1c(C(=O)NN2CCOCC2)oc2c1ccc1ccccc12	-22	111	i	0.89	-10	102	nt
O=C(CNc1ccccc1)N/N=C/c1cn(-c2ccccc2)nc1-c1ccccc1	-26	91	i	0.82	-13	102	-1.1
Cc1ccc(C#N)c(SCc2ccccc2F)n1	nt	nt	i	1	nt	105	nt
O=C(N/N=C\c1ccc(COc2ccc([N+](=O)[O-])cc2)o1)c1cccc(Cl)c1	43	52	i	0.85	-8	68	-1.5
COc1ccc(/C=N/NC(=O)c2cccc([N+](=O)[O-])c2)cc1OS(=O)(=O)c1ccc(C)cc1	nt	nt	i	0.62	4	105	-3.1
CCCCSc1nc2c(cnn2-c2ccccc2)c(=O)n1N	nt	nt	i	1	3	102	nt
Cc1ccc2c(c1)c1c(n2CC(O)CN2CCCCC2C)CCCC1 (stereo not given)	nt	nt	i	0.91	nt	99	nt
COc1cccc(Nc2cc(C)nc3nc(C)nn23)c1	nt	nt	i	0.92	6	116	-1.3
Clc1ccc(C2=Nn3c(nnc3-c3cc(-c4ccccc4)n[nH]3)SC2)cc1	25	106	i	0.85	-4	99	3.1
CCOc1ccc(-c2cc(CCCC(=O)NCc3cccnc3)no2)cc1	nt	nt	i	0.58	-15	99	-2.1

More records follow.
SMILES	INS promoter inh	INS promoter inh cell count	HSV augment	HSV augment primary fold	PKD1 kinase inh	RGS16-Gao HTS	GALR2 agonist
Cc1ccc(S(=O)(=O)Oc2ccc3c(c2)O/C(=C\c2cccnc2)C3=O)cc1	-4	93	i	0.88	-4	99	1.0
O=C(Nc1ccc(F)cc1)c1ccc(-n2cncn2)c([N+](=O)[O-])c1	nt	nt	i	1	-3	98	nt
CC(C)CCNC(=O)Cc1csc(-c2ccccc2)n1	-11	94	i	0.92	2	95	nt
O=C(O)CN=C1CC(c2ccccc2)CC(=O)/C1=C(/O)CCCN1C(=O)c2ccccc2C1=O (stereo not given)	nt	nt	i	1.1	1	92	nt
Cc1ccc(CCNC(=O)C2CCCN(S(=O)(=O)c3cccs3)C2)cc1 (stereo not given)	-61	67	i	0.57	3	92	-1.5
CCOC(=O)c1nnc(-c2ccccc2)nc1N1CCSCC1	nt	nt	i	0.92	3	98	nt
O=C(NCc1ccco1)c1cc2sccc2n1Cc1ccccc1	-48	47	i	1	-4	97	-1.6
CCOc1cc(/C=C2/NC(=O)N(CC(=O)Nc3cccc(C)c3)C2=O)ccc1O	-17	111	i	1	5	103	-1.5
C=CCNC(=O)C1CC1(c1ccccc1)c1ccccc1 (stereo not given)	25	131	nt	nt	6	113	-0.1
OCCN(CC#CC(O)(c1ccccc1)c1cccc(F)c1)CCO (stereo not given)	nt	nt	i	0.94	nt	88	nt
C=CCNC(=O)COC(=O)c1ccc(C)c(NC(=O)c2ccco2)c1	73*	43*	i	1.1	-3	105	nt
Cc1ccc(CN2CCN(Cc3nc4c(s3)CCCC4)CC2CCO)cc1 (stereo not given)	11	118	i	0.98	-1	101	nt
Cc1ccc(NC(=O)c2ccc(S(=O)(=O)NCC3CCCO3)cc2)cc1 (stereo not given)	71	123	i	1	2	105	-1.6
O=C(NCc1ccccc1)c1ccc(OCC2CCCO2)cc1 (stereo not given)	3	95	i	1.1	-2	111	-1.2
COc1ccc(Nc2cc(C(=O)NCc3ccco3)c3ccccc3n2)cc1	-26	109	i	1.2	1	104	9.7*
CCN(CC(=O)NCCC1=CCCCC1)S(=O)(=O)c1ccccc1	nt	nt	i	1.1	nt	95	nt
COc1cc(CNCCc2ccccc2)ccc1OCc1ccc(Cl)nc1	-32	93	nt	nt	-6	102	0.4
O=C(NCCCN1CCN(CCCNC(=O)c2ccc(F)cc2)CC1)c1ccc(F)cc1	-32	148	i	0.94	-5	96	-1.8
Cc1ccc(-c2nc(C=Nc3ccc(O)cc3)c(O)o2)cc1	nt	nt	i	0.82	1	98	nt
COc1ccc(-c2nnc3ccc(SCC(=O)NCc4ccco4)nn23)cc1OC	nt	nt	i	1.1	-13	98	-0.5
Cc1cc2c3nonc3ccc2n1C	24	114	i	0.82	8	105	0.8
COc1nc(OCCNC(C)=O)nc(N(C)C)n1	29	101	i	0.89	-6	99	-2.1
O=C(NNc1cc(N2CCCC2)nc(N2CCCC2)n1)c1ccc([N+](=O)[O-])cc1	-12	137	i	0.95	0	106	nt
CN(C)S(=O)(=O)Oc1ccsc1C(=O)Nc1cccc(Cl)c1Cl	17	124	i	1	-3	100	-2.7
CCCc1cc(-c2n[nH]c(=S)n2CC)c2ccccc2n1	8	93	i	0.76	-3	102	-1.9

New compounds follow:
SMILES	INS promoter inh	INS promoter inh cell count	HSV augment	HSV augment primary fold	PKD1 kinase inh	RGS16-Gao HTS	GALR2 agonist
CCOc1cccc2cc(C(=O)Nc3cc(C)on3)c(=O)oc12	-162	110	i	0.97	-3	84	-1.2
O=S(=O)(CS(=O)(=O)c1ccc(Cl)cc1)c1ccc(Cl)cc1	nt	nt	i	1	nt	100	nt
Cc1ccc(NC(=O)CN(C)C(=O)Cn2cc(C(F)(F)F)ccc2=O)cc1	6	132	i	1.1	-11	98	-0.9
O=C(Nc1ccc([N+](=O)[O-])cc1)c1cncc(Br)c1	nt	nt	i	0.96	-3	103	nt
COC(=O)[C@@H](NC(=O)NC1CCN(Cc2ccccc2)CC1)C(C)C	21	129	i	0.96	-8	100	-1.2
Cc1cccc(N(C)C(=O)c2cc3c(=O)[nH]c4ccc(C)cc4c3s2)c1	nt	nt	i	0.71	nt	103	nt
NS(=O)(=O)c1ccc(CCNC(=O)CN2CCCCC2)cc1	21	194	i	0.92	3	110	nt
O=C(/C=C/c1c(F)cccc1Cl)NCc1ccco1	-10	111	i	0.94	5	103	0.0
COc1ccc(S(=O)(=O)N/N=C(/C)c2cccc(NC(=O)c3ccccc3Cl)c2)cc1	nt	nt	nt	nt	4	86	0.1
Cc1cc(C)c2c(N)c(C(=O)NNC(=O)c3ccccc3)sc2n1	nt	nt	i	0.89	1	109	nt
C=CCn1c(SCc2nnc(-c3ccccc3)o2)nnc1C(O)c1ccccc1 (stereo not given)	-4	93	i	0.99	-4	106	-0.9
O=c1c(Cc2c(F)cccc2Cl)c(O)ccn1CCc1c[nH]c2ccccc12	20	111	i	1	-6	104	nt
Clc1ccccc1Cn1c(/C=C/c2ccco2)nc2ccccc21	-17	115	i	1.2	-11	94	0.4
Cc1cnc(NC(=O)/C=C/c2ccc(Br)o2)s1	nt	nt	i	0.95	nt	105	nt
CCCC(CCC(=O)Nc1ccc(S(N)(=O)=O)cc1)C(=O)O (stereo not given)	-8	84	i	0.93	0	99	0.4
CCN(CC)C(=O)C1CCN(c2ncnc3c2cnn3-c2ccc(C)cc2C)CC1	nt	nt	i	0.89	0	109	-1.2
CCOC(=O)N1CCC(NCCNC(=O)c2ccccc2Cl)CC1	0	115	i	1	5	105	-3.4
CC(C)Oc1ccc(CCC(=O)NNC(=O)CCC(=O)O)cc1	nt	nt	i	0.97	nt	98	nt
CCOC(=O)Nc1cccc(C(=O)O)c1	-228	132	i	1.1	-2	95	-0.7
CN(c1cccc(NC(=O)c2cccc([N+](=O)[O-])c2)c1)S(C)(=O)=O	nt	nt	i	0.99	-1	103	nt
Cc1cc(C(=O)O)oc(=O)c1	nt	nt	i	1	nt	102	nt
COc1cnc(-c2ccccc2)nc1Oc1ccc(Cl)cc1C	nt	nt	i	1.1	-5	101	nt
COc1ccc2nc(NC(=O)C3=NN(c4ccccc4)C(=O)CC3)sc2c1	22	64	i	0.94	-10	98	0.3
Cc1ccc(C)c(CN2CCCNC2=O)c1	0	140	i	0.97	3	120	-2.3
O=C(NCc1ccco1)c1cc([N+](=O)[O-])ccc1N1CCCCC1	19	116	i	0.88	-2	35	-2.7

Filtered by structure: the compounds so far containing fluorine
SMILES	INS promoter inh	INS promoter inh cell count	HSV augment	HSV augment primary fold	PKD1 kinase inh	RGS16-Gao HTS	GALR2 agonist
O=C(Nc1ccc(F)cc1)N(CCCN1CCOCC1)Cc1cc2cc3c(cc2[nH]c1=O)OCO3	30	120	nt	nt	10	102	0.1
O=C(CN1C(=O)/C(=C2\SC(=S)N(C3CCS(=O)(=O)C3)C2=O)c2ccccc21)Nc1ccc(F)cc1 (stereo not given)	nt	nt	i	0.78	nt	97	nt
Cc1ccc(C#N)c(SCc2ccccc2F)n1	nt	nt	i	1	nt	105	nt
O=C(Nc1ccc(F)cc1)c1ccc(-n2cncn2)c([N+](=O)[O-])c1	nt	nt	i	1	-3	98	nt
OCCN(CC#CC(O)(c1ccccc1)c1cccc(F)c1)CCO (stereo not given)	nt	nt	i	0.94	nt	88	nt
O=C(NCCCN1CCN(CCCNC(=O)c2ccc(F)cc2)CC1)c1ccc(F)cc1	-32	148	i	0.94	-5	96	-1.8
Cc1ccc(NC(=O)CN(C)C(=O)Cn2cc(C(F)(F)F)ccc2=O)cc1	6	132	i	1.1	-11	98	-0.9
O=C(/C=C/c1c(F)cccc1Cl)NCc1ccco1	-10	111	i	0.94	5	103	0.0
O=c1c(Cc2c(F)cccc2Cl)c(O)ccn1CCc1c[nH]c2ccccc12	20	111	i	1	-6	104	nt

(further entries)
SMILES	INS promoter inh	INS promoter inh cell count	HSV augment	HSV augment primary fold	PKD1 kinase inh	RGS16-Gao HTS	GALR2 agonist
O=[N+]([O-])c1cccc(N=NN(CCO)c2cccc([N+](=O)[O-])c2)c1	-32	92	i	0.82	5	49	-4.2
O=C1CCCC2=C1C(c1cccs1)n1ncnc1N2 (stereo not given)	34	144	i	0.75	-5	142	-0.9
COc1ccc(NC(=O)CC2C(=O)N(c3cccc(OC)c3)C(=O)N2C2CCCCC2)cc1 (stereo not given)	-36	117	i	0.74	0	102	-0.2
O=C(CCN1C(=O)c2ccccc2S1(=O)=O)Nc1nc2c(s1)CCCC2	-4	37	i	0.78	2	96	-1.1
O=C1N(Cc2cccnc2)C[C@@H]2C[C@@H](c3ccccc3C(F)(F)F)N3CCC[C@@]123	nt	nt	i	0.98	nt	106	nt
COCCCNC(=O)CN(c1cc(Cl)cc(Cl)c1)S(C)(=O)=O	-12	111	i	1	0	105	-0.1
N#Cc1cc(N2CCOCC2)nc2ccccc12	nt	nt	i	1	nt	100	nt
CC(=O)c1c(N2CCN(Cc3ccc4c(c3)OCO4)CC2)nc(=S)n(-c2ccccc2)c1C	60	64	i	0.75	-4	125	-1.0
NCCCNC(=O)c1cc2ccccc2[nH]1	nt	nt	i	1	-3	100	-0.9
c1ccc(C2CCC(N3CCNCC3)CC2)cc1 (stereo not given)	nt	nt	i	0.97	-4	250*[activator]	0.6
O=C(Oc1cc(-c2ccccc2)no1)c1ccc(Cl)cc1	3	120	i	0.93	1	107	-0.4
O=C1CCCC(O)=C1C=Nc1ccc2c(c1)oc1ccccc12	-37	137	i	0.93	-7	112	0.9
O=C(O)c1ccc(/C=C2\SC(=S)N(Nc3ccccc3)C2=O)cc1	nt	nt	i	0.8	nt	123	nt
